# Screens as filed in PubChem BioAssay.
# EPAC2 ant val – Validation qHTS for antagonist of cAMP-regulated guanine nucleotide exchange factor 4 (EPAC2) | Rap guanine nucleotide exchange factor 4 (Homo sapiens), Q8WZA2 | EPAC2 Rap1B BODIPY-GDP exchange, fluorescence | Potency, µM (highest dose often 112 µM), without a hit: top-dose activity, negative = inhibition, hits mostly inhibitors | actives 1.7% (n = 16,000); active = well fitted inhibition curve with a large enough effect; inconclusive = small, poorly fitted or top-dose-only effect; inactive = no such curve, though single readings can be large or run the other way;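 also: 100% = activation by cAMP agonist control; nearly all actives have a fitted effect of over 40% in size; the record reuses the description of the EPAC1 agonist screen; inactives centre near -10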
# Target sequence (Q8WZA2 whole entry, looked up): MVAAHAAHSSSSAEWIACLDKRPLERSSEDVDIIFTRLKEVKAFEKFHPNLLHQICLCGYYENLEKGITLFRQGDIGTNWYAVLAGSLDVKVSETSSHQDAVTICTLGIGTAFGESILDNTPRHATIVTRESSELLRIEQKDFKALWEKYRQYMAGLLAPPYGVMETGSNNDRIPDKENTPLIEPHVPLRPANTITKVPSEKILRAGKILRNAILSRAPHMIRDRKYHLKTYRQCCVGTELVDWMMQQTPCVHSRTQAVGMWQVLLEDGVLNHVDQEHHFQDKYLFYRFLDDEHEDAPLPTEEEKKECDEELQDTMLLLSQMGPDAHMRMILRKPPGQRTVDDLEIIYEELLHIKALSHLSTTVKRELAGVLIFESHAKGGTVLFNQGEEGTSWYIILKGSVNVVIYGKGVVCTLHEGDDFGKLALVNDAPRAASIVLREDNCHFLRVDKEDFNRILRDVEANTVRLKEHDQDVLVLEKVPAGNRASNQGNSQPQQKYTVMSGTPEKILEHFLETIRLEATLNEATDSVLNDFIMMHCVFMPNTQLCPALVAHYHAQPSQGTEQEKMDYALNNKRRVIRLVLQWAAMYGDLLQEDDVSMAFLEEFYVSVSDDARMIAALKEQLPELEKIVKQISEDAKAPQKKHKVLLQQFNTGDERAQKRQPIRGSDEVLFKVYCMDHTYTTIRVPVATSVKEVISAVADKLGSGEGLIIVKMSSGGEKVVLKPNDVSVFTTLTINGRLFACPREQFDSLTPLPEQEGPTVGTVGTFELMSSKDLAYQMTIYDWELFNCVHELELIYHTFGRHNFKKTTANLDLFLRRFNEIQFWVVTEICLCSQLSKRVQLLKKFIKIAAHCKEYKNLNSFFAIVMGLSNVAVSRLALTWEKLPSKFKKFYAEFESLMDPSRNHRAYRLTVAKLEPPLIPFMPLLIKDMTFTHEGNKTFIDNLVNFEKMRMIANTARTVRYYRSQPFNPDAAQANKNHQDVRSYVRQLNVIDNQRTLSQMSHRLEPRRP
#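 Normalized against a 6.5 mM cAMP agonist control, compounds were tested on 100 nM EPAC2 exchanging Rap1B-bound BODIPY-GDP (250 nM) for 50 uM GDP. Fluorescence drop (ex 480, em 540 nm) was tracked at room temperature over 30 min at 5-min intervals.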
# An asterisk follows results filed as active; ? = inconclusive; & = joins results of further samples; [ ] = another dose, or the depositor's remark. Potency is read from the fitted curve at half-maximal effect. An excerpt; the hit share may differ from the screen's.
SMILES,EPAC2 ant val
CC(=O)OC1CC2C(C)(C)C(O)CC[C@@]2(C)C2CC[C@@]3(C)C(c4ccoc4)OC(=O)C4O[C@@]43[C@]12C (stereo partly specified),-22%
Cc1ccc(C(=O)Nc2cccc(-c3nc(CNC(=O)[C@@H]4C[C@@H](C)NC(=S)N4)c(C)o3)c2)s1,?
Nc1nc(N)c(N=O)c(N)n1,-6%
COCCn1c(=O)c(C)nc2cnc(N3CCOCC3)nc21,-5%
Cc1cnc(-n2ncc(C(=O)NCc3ccccn3)c2C2CC2)nc1-c1cccs1,?
Cc1cc(-c2ccnc(-n3ncc(C(=O)NCC4COCCO4)c3C)n2)c(C)s1 (stereo unspecified),-9%
FC(F)(F)COCC(F)(F)F,-20%
COc1ccc(CN2C[C@H](Sc3nc4ccccc4[nH]3)C[C@H]2C(=O)N2CCCN(C)CC2)cc1C,-12%
O=c1c(O)cc(C2Oc3cc(O)cc(O)c3CC2O)cc2c(C3Oc4cc(O)cc(O)c4CC3O)cc(O)c(O)c12 (stereo unspecified),20µM*
CN(C)c1ncc2nc(-c3ccc(Cl)cc3)c(=O)n(CCC#N)c2n1,5%
COCCn1c(=O)c(-c2cccs2)nc2cnc(N3CCN(C)CC3)nc21,8%
CC(C)C[C@H](NC(=O)[C@@H](COC(C)(C)C)NC(=O)[C@H](Cc1ccc(O)cc1)NC(=O)[C@H](CO)NC(=O)[C@H](Cc1c[nH]c2ccccc12)NC(=O)[C@H](Cc1cnc[nH]1)NC(=O)[C@@H]1CCC(=O)N1)C(=O)N[C@@H](CCCN=C(N)N)C(=O)N1CCC[C@H]1C(=O)NNC(N)=O,0%&5%
O=S(=O)(c1ccccc1)N1CCC2(CCN(Cc3nccs3)CC2)CC1,-14%
COc1ccc(C(=O)N2CCC3(CCN(C(=O)Nc4ccccc4)CC3)CC2)cc1,-21%
Cn1c(=O)c(CCc2ccccc2)nc2cnc(N3CCOCC3)nc21,-8%
C#C[C@]1(O)CC[C@H]2[C@@H]3CCC4=CCCC[C@@H]4[C@H]3C(=C)C[C@@]21CC,-28%
CCCCCCCCCCCCCCCC(=O)OCCC1CCN(CCCN2c3ccccc3Sc3ccc(S(=O)(=O)N(C)C)cc32)CC1,5%
COc1ccccc1-c1cc(NCc2cccnc2)ncn1,-11%
OC[C@H]1O[C@@H]2O[C@H]3[C@H](O)[C@@H](O)[C@@H](O[C@H]4[C@H](O)[C@@H](O)[C@@H](O[C@H]5[C@H](O)[C@@H](O)[C@@H](O[C@H]6[C@H](O)[C@@H](O)[C@@H](O[C@H]7[C@H](O)[C@@H](O)[C@@H](O[C@H]1[C@H](O)[C@H]2O)O[C@@H]7CO)O[C@@H]6CO)O[C@@H]5CO)O[C@@H]4CO)O[C@@H]3CO,-3%
CC(=O)Oc1ccc(C(c2ccc(OC(C)=O)cc2)c2ccccn2)cc1,18µM*
CCn1cc(C(=O)O)c(=O)c2ccc(C)nc21,-14%&-2%&-15%
CCCCC/C=C\C\C=C/C=C/C=C/[C@@H](SC[C@H](N)C(=O)O)[C@@H](O)CCCC(=O)O,-13%[1.17 µM]
COc1ncc2nc(-c3cc(F)cc(F)c3)c(=O)n(CCc3ccccc3)c2n1,-6%
O=C1CCN(CCc2ccccc2)CCN1[C@H](COc1ccccc1)c1ccccc1,?
O=C(/C=C/c1ccc(O)cc1)c1cccs1,1%
O[Si](CCCN1CCCCC1)(c1ccc(F)cc1)C1CCCCC1 (stereo unspecified),15%
Cc1c(C(=O)NCc2ccc(F)cc2)sc2ncnc(NCC3CCCO3)c12 (stereo unspecified),-5%
Cc1cnc(SCc2ccccn2)nc1C1CCCN(C(=O)c2cccc(-c3cccc(F)c3)c2)C1 (stereo unspecified),?
CC(CCC(=O)O)C1CCC2C3C(=O)CC4CC(=O)CC[C@@]4(C)C3CC(=O)[C@]12C (stereo partly specified),-17%
COCC(=O)N1CCC2(CC1)CN(Cc1cc(C(F)(F)F)cc(C(F)(F)F)c1)C2,-20%
O=c1cnc2cncnc2n1Cc1ccccc1,-25%
NC[C@@H]1O[C@@H](O[C@H]2[C@@H](O)[C@H](O[C@@H]3[C@@H](O)[C@@H](N)C[C@H](N)[C@H]3O[C@H]3O[C@H](CN)[C@@H](O)[C@@H](O)[C@H]3N)O[C@H]2CO)[C@H](N)[C@@H](O)[C@@H]1O,-4%
CCCOC(=O)c1ccccc1O,29%
CC(=O)OC[C@@]1(O)C[C@]23CCC4c5ccoc5CC[C@@]4(C)C2CCC1C3 (stereo partly specified),-12%
Cc1cnc(-n2ncc(C(=O)NCc3ccncc3)c2C(C)C)nc1-c1ccc(F)cc1,-26%
NC(CCCP(=O)(O)O)C(=O)O (stereo unspecified),-1%
CN(C)c1nc(-c2ccc3c(c2)OCO3)nc2ccccc12,-28%
CN(C)C(=O)c1ccc(-c2cc(NCc3ccccc3)ncn2)cc1,-11%
C=CC(C1=CC(=O)C(OC)=CC1=O)c1ccccc1 (stereo unspecified),35µM*
CCCCCCCCCCCCCCCC(=O)OC(C)C,2%

# Overlap with the part before: 6 entries, followed by the next part.
SMILES,EPAC2 ant val
Cc1cnc(-n2ncc(C(=O)NCc3ccncc3)c2C(C)C)nc1-c1ccc(F)cc1,-26%
NC(CCCP(=O)(O)O)C(=O)O (stereo unspecified),-1%
CN(C)c1nc(-c2ccc3c(c2)OCO3)nc2ccccc12,-28%
CN(C)C(=O)c1ccc(-c2cc(NCc3ccccc3)ncn2)cc1,-11%
C=CC(C1=CC(=O)C(OC)=CC1=O)c1ccccc1 (stereo unspecified),35µM*
CCCCCCCCCCCCCCCC(=O)OC(C)C,2%
COc1cccc(Cn2c(=O)c(-c3ccc(F)c(F)c3)nc3cncnc32)c1,?
CCOC(=O)c1ccc(OC(=O)CCCCCN=C(N)N)cc1,6%[56.6 µM]
CCCCC/C(C=O)=C\c1ccccc1,-2%
NCC(O)c1ccc(O)c(O)c1 (stereo unspecified),-8%
COc1ccc(CNc2cc(-c3ccccc3OC)ncn2)c(OC)c1,-43%
OC1C=C2CCN3Cc4cc5c(cc4C(C1O)C23)OCO5 (stereo unspecified),-10%
C[C@H](Cc1ccc(O)c(O)c1)[C@@H](C)Cc1ccc(O)c(O)c1,?
CN1CCN(c2ncnc3ccc(-c4cccnc4)cc23)CC1,-13%
c1ccc2nc3ccccc3cc2c1,-2%
CCC(=O)O[C@]1(C(=O)CCl)[C@@H](C)C[C@H]2[C@@H]3CCC4=CC(=O)C=C[C@]4(C)[C@@]3(F)[C@@H](O)C[C@@]21C,-24%
CC1=C(/C=C/C(C)=C/C=C/C(C)=C/C(=O)O)C(C)(C)CCC1O (stereo unspecified),-11%
COc1cc(OC)c(/C=C/c2ccccn2)c(OC)c1,8%
O=S(=O)(c1ccccc1)N1CCC[C@@]2(CCN(c3ccncc3)C2)C1,-9%
CN=C1C=CC(=C(c2ccc(N(C)C)cc2)c2ccc(N(C)C)cc2)C=C1,?
FC(F)(F)c1cc(CN2CC3(CCNCC3)C2)cc(C(F)(F)F)c1,?
CCNc1ncc2nc(-c3ccc(Cl)cc3)c(=O)n(-c3ccccc3)c2n1,-13%
CC(C)=CCc1c2c(c3occ(-c4ccc(O)cc4)c(=O)c3c1O)C=CC(C)(C)O2,32µM*
O=C(O)Cc1cccc2ccccc12,-13%[239 µM]
COc1ccccc1CNc1cc(-c2ccccc2Cl)ncn1,-30%
CCN(CC)c1ncnc2c1ncn2[C@@H]1O[C@@H](COP(=O)(O)OP(=O)(O)C(Br)(Br)P(=O)(O)O)[C@H](O)[C@H]1O,10%
COc1ccccc1-c1nc(NCCc2cnc[nH]2)c2ccccc2n1,-18%
CS(=O)(=O)N1CCC2(CC1)CN(Cc1ccccc1)C2,-10%
Cc1cc(C(=O)NCc2nnc3n2CCN(Cc2ccc(F)cc2F)CC3)c(C)o1,-1%
Cc1nccn1CC1CCc2c(c3ccccc3n2C)C1=O (stereo unspecified),10%[56.6 µM]
CC(C)N=c1cc2n(-c3ccc(Cl)cc3)c3ccccc3nc-2cc1Nc1ccc(Cl)cc1,2%[56.6 µM]
Cc1cccc(CNc2nc(-c3ccccc3CN(C)C)nc3ccccc23)c1,-11%
CC(=O)N[C@@H](C(=O)O)C(C)(C)SN=O,-15%
COc1ccccc1CCC(=O)N1CCOc2c(cc(-c3cnc4ccccc4c3)cc2OC)C1,-4%
O=C(Nc1ccccc1)N1CCC2(CC1)CCN(C(=O)c1cnccn1)CC2,-16%
CC(C)[C@@H]1CC[C@@H](C)C[C@H]1O,2%
C[N+](C)(CCCCCC[N+](C)(C)CCCN1C(=O)c2ccccc2C1=O)CCCN1C(=O)c2ccccc2C1=O,0%&-30%
O=C(c1cc(O)c(O)c([N+](=O)[O-])c1)c1ccccc1F,-29%
COc1ccc([C@@H]2CC(=O)c3c(O)cc(O[C@@H]4O[C@H](CO[C@@H]5O[C@@H](C)[C@H](O)[C@@H](O)[C@H]5O)[C@@H](O)[C@H](O)[C@H]4O)cc3O2)cc1O,-15%[56.6 µM]
COc1cccc(CN2CCC(n3cc(C(=O)NC4CCCC4)nn3)CC2)c1O,-2%
COc1ccccc1CNc1ncnc2ccc(-c3ccccc3C#N)cc12,-23%
Cn1cccc1C(=O)N1CCC2(CCCN(Cc3ccccc3)C2)CC1,-25%
O=C(Nc1nccs1)[C@@H]1CC=C[C@@H]2CCN(C3CCCCC3)C(=O)[C@@H]21,-24%
CCCCC/C=C\C\C=C/C=C/C=C/[C@@H](SCC(NC(C)=O)C(=O)O)[C@@H](O)CCCC(=O)O (stereo partly specified),-16%[1.17 µM]
COc1cccc(CNC(=O)c2c(OC)cc(=O)n3c2CCN(C(=O)c2ccc(C)cc2C)CC3)c1,-2%
COc1ccc(-c2oc3ccc(C)cc3c(=O)c2O)cc1OC,-12%

# Pulled by compound from above (four):
SMILES,EPAC2 ant val
CCCCC/C=C\C\C=C/C=C/C=C/[C@@H](SCC(NC(C)=O)C(=O)O)[C@@H](O)CCCC(=O)O (stereo partly specified),-16%[1.17 µM]
C[N+](C)(CCCCCC[N+](C)(C)CCCN1C(=O)c2ccccc2C1=O)CCCN1C(=O)c2ccccc2C1=O,0%&-30%
COc1ccc([C@@H]2CC(=O)c3c(O)cc(O[C@@H]4O[C@H](CO[C@@H]5O[C@@H](C)[C@H](O)[C@@H](O)[C@H]5O)[C@@H](O)[C@H](O)[C@H]4O)cc3O2)cc1O,-15%[56.6 µM]
COc1cccc(CNC(=O)c2c(OC)cc(=O)n3c2CCN(C(=O)c2ccc(C)cc2C)CC3)c1,-2%

# (cont.)
SMILES,EPAC2 ant val
N#Cc1ccc(CN2CCC3(CC2)CCN(C(=O)c2cc(C(F)(F)F)cc(C(F)(F)F)c2)CC3)cc1,?
CNC(=O)[C@H]1O[C@@H](n2cnc3c(N)ncnc32)[C@H](O)[C@@H]1O,-1%
CCOC(=O)c1c(N)sc2c1CCN(Cc1ccccc1)C2,12%
COc1ccc(NC(=O)N2CC[C@@]3(CCCN(C(=O)c4ccc(OC)cc4)C3)C2)cc1,-18%
Cn1cccc1C(=O)N1CCC2(CCCN(Cc3ccc(C#N)cc3)C2)CC1,-15%
N#CC(C#N)=C(N)/C(C#N)=C/c1ccc(O)cc1,-3%
COc1cccc(-c2cc(=O)c3cc(O)ccc3o2)c1,-8%
COc1cccc(-c2nc(NCCN3CCOCC3)c3ccccc3n2)c1,-19%
CS(=O)(=O)Nc1cccc(-c2ccc3ncnc(NCc4cccs4)c3c2)c1,-17%
Nc1ccc(O)cc1,?
NS(=O)(=O)c1cc2c(cc1Cl)NC=NS2(=O)=O,-14%&-18%&-4%
COc1ncc2nc(-c3ccc(Cl)cc3)c(=O)n(CCC#N)c2n1,1%
COc1ccccc1CNc1ncncc1-c1cccnc1,-17%
Cc1nc2cnc(OCc3ccccc3)nc2n(C)c1=O,-4%
CC(=O)OC1CC[C@]2(C)C(CC(OC(C)=O)[C@@]3(C)C4=CC(=O)OC(c5ccoc5)[C@]4(C)CCC23)C1(C)C (stereo partly specified),?
CN1CCCC2(CCN(S(=O)(=O)c3ccccc3)CC2)C1,-15%
COCCn1c(=O)c(C)nc2cnc(Oc3ccc(OC)cc3)nc21,2%
Cn1c(=O)c(-c2cccs2)nc2cnc(Oc3ccccc3)nc21,-16%
Clc1ccc2nccnc2c1,-13%
CC(=O)NCCNc1nc(-c2ccccc2C(F)(F)F)nc2ccccc12,-9%
COc1cc([C@@H]2c3cc4c(cc3[C@@H](O[C@@H]3O[C@@H]5CO[C@@H](C)O[C@H]5[C@H](O)[C@H]3O)[C@H]3COC(=O)[C@H]23)OCO4)cc(OC)c1O,-14%
CN(C)c1nc(N(C)C)nc(N(C)C)n1,-4%
CCn1c(-c2cccnc2)nc2cc(NC(=O)COC)cc(C(=O)N3CC[C@@H]4CCCC[C@H]4C3)c21,-19%
CC(=O)N1CCC[C@@]2(CCN(Cc3ccc(C#N)cc3)C2)C1,-15%
COc1ccccc1-c1cncnc1NCc1cccs1,-24%
CC(Oc1ccccc1)C(=O)N[C@@H]1C(=O)N2[C@@H]1SC(C)(C)[C@@H]2C(=O)O (stereo partly specified),-12%[56.6 µM]
Cc1ncc2c(c1CNS(=O)(=O)N(C)C)CCN(C(=O)/C=C/c1cccc(F)c1)C2,-25%
CN(C)c1ccc2ccc3cccc4ccc1c2c34,101%[activator]
CC(=O)N[C@@H](Cc1ccc(O)cc1)C(=O)O,9%
CN(C)c1ccc(/C=c2\[nH]c(=O)/c(=C\c3ccc(N(C)C)cc3)[nH]c2=O)cc1,5%
CS(=O)(=O)Nc1cccc(-c2nc(Nc3ccccc3)c3ccccc3n2)c1,-14%
CNc1ncncc1-c1c(C)noc1C,-9%
CCn1nc(C(=O)O)c(=O)c2cc3c(cc21)OCO3,-13%
